Screening data as filed in PubChem.
StopGo reporter: FMDV 2A StopGo reporter, luciferase signal; human cells with a luciferase reporter of 2A StopGo recoding; control for the full effect not named in the record; Potency, µM (top dose mostly 57.9 µM), for inactives: top-dose signal change, negative = less light; actives 1.2% (n = 410,000); AID 1159524; active = well fitted falling curve with a large enough effect; inconclusive = small, poorly fitted or top-dose-only effect; inactive = no such curve, though single readings can be large or run the other way; tested in HEK293T cells; also: % is scaled to controls: 0 for no effect and ±100 for the full control effect; nearly all actives have a fitted effect of over 45% in size; luciferase light after 4 h
LASV entry inh: blocks Lassa virus binding to or entry into cells. Potency, µM (titrated, usually from 37.9 µM), for inactives: at the top dose activity change, negative = inhibition, hits mostly inhibitors. actives 1.2% (n = 300,000). Lassa virus pseudotype entry inhibition, cell reporter; control for the full effect not named in the record. AID 540256; active means well fitted inhibition curve with a large enough effect; inconclusive means small, poorly fitted or top-dose-only effect, or effect the other way; inactive means flat fitted curve, though single readings scatter; tested in HEK293 cells; also: % is scaled to controls: 0 for no effect and ±100 for the full control effect; nearly all actives have a fitted effect of over 50% in size; luciferase read-out
Cruzain Triton: blocks cruzain activity in presence of Triton detergent; purified cruzain, Z-FR-AMC fluorescence, 0.01% Triton; Potency, µM, for the others: max response, negative = inhibition, usual class: inhibitors; actives 0.43% (n = 200,000);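 also: plate controls were neutral wells for no effect and buffer without enzyme for full effect; nearly all actives have a fitted effect of over 40% in size; top concentration of the series not given in the record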
Target sequence (P25779 123-467 limits assumed): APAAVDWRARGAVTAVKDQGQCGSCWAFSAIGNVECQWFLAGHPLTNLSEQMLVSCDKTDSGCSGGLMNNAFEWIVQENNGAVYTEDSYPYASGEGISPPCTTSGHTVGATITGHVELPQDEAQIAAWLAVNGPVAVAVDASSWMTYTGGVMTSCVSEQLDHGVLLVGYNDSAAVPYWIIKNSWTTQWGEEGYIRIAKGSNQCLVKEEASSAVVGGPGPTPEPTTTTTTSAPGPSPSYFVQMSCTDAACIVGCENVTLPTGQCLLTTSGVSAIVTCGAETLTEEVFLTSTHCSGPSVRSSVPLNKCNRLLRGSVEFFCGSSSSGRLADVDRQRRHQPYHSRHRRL
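Z-FR-AMC hydrolysis (2 uM substrate) by cruzain (1.5 nM) monitored kinetically at ex 360/em 450 nm after 15 min room-temperature compound exposure; 0.01% Triton X-100, pH 5.5, 5 mM DTT.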
Cruzain inh noDet: blocks cruzain activity in detergent-free assay; actives 2.3% (n = 200,000); purified cruzain, Z-FR-AMC fluorescence, no detergent; P25779; Potency, µM, inactives show max response, negative = inhibition, hits mostly inhibitors; AID 1476;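 also: plate controls were enzyme without inhibitor for no effect and buffer without enzyme for full effect; nearly all actives have a fitted effect of over 40% in size; top concentration of the series not given in the record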
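Purified cruzain at 1.5 nM, pre-incubated 15 min with compound at room temperature in 100 mM sodium acetate pH 5.5, 5 mM DTT, 0.00005% Triton X-100. Reaction started with 2 uM Z-FR-AMC; AMC fluorescence increase over 60 s gives rate.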
RE007 growth inh: less growth of the S. pombe RE007 Vpr strain | Potency, µM (titrated, usually from 92.2 µM), without a hit: at the top dose activity change, negative = less growth | actives 0.21% (n = 360,000) | S. pombe RE007 Vpr strain, BacTiter-Glo ATP luminescence, 24 h; control for the full effect not named in the record; active = well fitted falling curve with a large enough effect; inconclusive = small, poorly fitted or top-dose-only effect; inactive = no such curve, though single readings can be large or run the other way;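 also: % is scaled to controls: 0 for no effect and ±100 for the full control effect; nearly all actives have a fitted effect of over 50% in size; the assay follows cell death caused by Vpr and the record does not say whether a fall means rescue or toxicity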
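Fission yeast strain RE007, carrying one chromosomally integrated HIV-1 vpr copy, was seeded at OD 0.01 in PMG+AL medium with 23 nL pinned compound. After 24 h at 30 °C and 99% humidity, viability was read by BacTiter-Glo luminescence.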
NS1 inh: blocks influenza NS1 protein function. S. cerevisiae slowed by influenza A NS1, growth recovery by OD600. Potency, µM (titrated, usually from 46.1 µM), inactives show top-dose activity, positive = more growth. actives 0.4% (n = 270,000); active means well fitted rising curve with a large enough effect; inconclusive means small, poorly fitted or top-dose-only effect; inactive means no such curve, though single readings can be large or run the other way; also: nearly all actives have a fitted effect of over 50% in size
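Growth recovery, yeast-based: influenza A NS1 expressed in S. cerevisiae causes slow growth, and suppressors are detected by OD600. The parent strain without NS1 is used as positive control.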
SARS PLP yeast: SARS-CoV PLP inhibition in yeast. S. cerevisiae expressing SARS-CoV PLpro, growth rescue; control for the full effect not named in the record. Potency, µM (doses to about 32.9 µM), for the others: at the top dose activity, positive = growth rescue. actives 0.19% (n = 330,000). AID 485353; active means well fitted rising curve with a large enough effect; inconclusive means small, poorly fitted or top-dose-only effect; inactive means no such curve, though single readings can be large or run the other way; also: 0% is about no effect; nearly all actives have a fitted effect of over 55% in size; growth read by luminescence after 48 h
Marburg entry inh: inhibitors of Marburg virus binding or cell entry. Marburg virus pseudotyped entry inhibition, cell reporter; control for the full effect not named in the record; about a third of the inactives were read at about 46 µM. Potency, µM (titrated, usually from 37.8 µM), without a hit: top-dose activity change, negative = inhibition, most hits filed as inhibitors. actives 1.8% (n = 300,000); active = well fitted inhibition curve with a large enough effect; inconclusive = small, poorly fitted or top-dose-only effect, or effect the other way; inactive = flat fitted curve, though single readings scatter; tested in HEK293 cells; about a fifth of its hits are not listed in these tables; also: % is scaled to controls: 0 for no effect and ±100 for the full control effect; luciferase read-out
* = called active by the depositor; ? = inconclusive; / = no result given; & = joins results of further samples; [ ] = another dose, or the depositor's remark. Unless noted, calls follow the shape of the dose curve; as a rule, active = well fitted curve in the direction sought with a large enough effect; inconclusive = small, poorly fitted or top-dose-only effect, or another doubt; inactive = no such curve, though single readings can be large; an effect the other way counts as inactive or inconclusive. Potency is read from the fitted curve at half-maximal effect.

SMILES	StopGo reporter	LASV entry inh	Cruzain Triton	Cruzain inh noDet	RE007 growth inh	NS1 inh	SARS PLP yeast	Marburg entry inh
CCOc1ccc(N2CC(NC(=O)C3CCCCC3)CC2=O)cc1 (stereo not given)	-5%	-26%[46.1 µM]	-0.5%	-3%	/	/	/	/
CCC(=O)N1CCc2cc(S(=O)(=O)NCCC(=O)N3CCN(c4cccc(OC)c4)CC3)ccc21	0%	/	/	/	-8%	7%	-1%	/
CC1=CC(=C2C(=O)NC(=O)NC2=O)C=C(C(F)(F)F)N1C(C)C	12%	8%	-4.9%	-7%	25%	0%	-1%	-11%
CCC/C=N/NC(=O)c1[nH]c2c([N+](=O)[O-])cccc2c1C	-8%	?	-5.0%	1%	-6%	?	-5%	?
CC1CN(/C=C/C=O)C(C)CC1OC(=O)c1ccccc1 (stereo not given)	-25%	?	/	/	20%	1%	2%	-4%
Oc1ccc(N=Nc2c(O)ccc3ccccc23)cc1	/	?	-2.7%	-29%	?	-36%	-26%	?
CN(Cc1ccccc1)C(=O)c1cccnc1	3%	-8%	/	/	2%	-7%	-2%	9%
O=C(CSCc1ccc([N+](=O)[O-])cc1)N/N=C/c1cccnc1	-8%	9%	/	/	-14%	4%	1%	20%[46.1 µM]
COc1cc(S(=O)(=O)N2CCCCCC2)ccc1-n1cnnn1	/	-2%	0.8%	-2%	8%	3%	4%	?
CCCCn1c(N)c(N(CC(C)C)C(=O)c2cc(C)oc2C)c(=O)[nH]c1=O	4%	?	/	/	-6%	5%	19%	-10%
CC1CCCC(C)N1S(=O)(=O)c1ccc(S(=O)(=O)NCCc2ccncc2)cc1 (stereo not given)	/	-22%	-1.8%	9%	-19%	-3%	13%	-19%
Cc1c(NC(=O)C(=O)/C=C(\O)c2ccc(Br)cc2)c(=O)n(-c2ccccc2)n1C	-4%	6%	-8.9%	8%	15%	16%	-29%	9%
COc1cc(OC)c(OC)cc1/C=C/c1ccnc2ccccc12	-17%	-23%	/	/	27%	/	/	?
COC(=O)c1ccc(Nc2nnc(-c3ccc(C)c(S(=O)(=O)NCC4CCCO4)c3)c3ccccc23)cc1 (stereo not given)	61%[activator]	?	-8.6%	25%	3%	-46%	22%	?
CC(C)c1ccc(-c2c(NCCc3ccccc3)c(=O)c2=O)cc1	-5%	24%[46.1 µM]	/	/	-10%	-1%	2%	0%[46.1 µM]
COc1ccc(-c2cnc(N)nc2-c2ccc(OC)cc2)cc1	?	/	/	/	-10%	4%	-1%	/
O=C(CSc1nc2ccccc2c(=O)n1CCCC(=O)N1CCCC1)NCc1ccco1	-10%	-17%	4.7%	-4%	-4%	-2%	-1%	-10%
CN(C)C(=O)c1ccc(Cl)cc1[N+](=O)[O-]	19%	/	/	/	5%	8%	1%	14%[46.1 µM]
CC(C)n1c(SCC(=O)NCc2ccco2)nnc1C1CC1	-17%	11%	/	/	0%	4%	1%	17%
CSc1cccc(NC(=S)N2CCC(N(C)C(C)C)CC2)c1	-8%	2%	/	/	12%	-2%	-5%	10%
COCCCNC(=O)CSc1nc2cc3c(cc2c(=O)n1CCCCCC(=O)NCCc1ccc(OC)c(OC)c1)OCO3	-3%	15%[46.1 µM]	0.8%	12%	/	/	/	/
CCn1ncc(Br)c1C(=O)Nc1ncc(C)s1	45%[activator]	5%	/	/	-8%	/	0%	0%
Cc1ccc(NC(=O)CC(C)c2ccccc2)cc1S(=O)(=O)N1CCOCC1 (stereo not given)	?	-13%	/	/	-11%	/	-5%	?
COc1ccc(NS(=O)(=O)Cc2ccccc2Cl)cn1	-6%	26%	-4.6%	5%	-8%	-1%	-3%	0%
COC(=O)[C@H](CCSC)NC(=O)Nc1ccc(OC)cc1OC	18%	1%	7.7%	-4%	-2%	5%	6%	?
Continuation.
SMILES	StopGo reporter	LASV entry inh	Cruzain Triton	Cruzain inh noDet	RE007 growth inh	NS1 inh	SARS PLP yeast	Marburg entry inh
COCc1cc(C)nc(NC2CCCCC2)c1C#N	2%	21%	-12%	19%	-11%	5%	-5%	-4%
C=CCn1c(=O)/c(=C/c2ccc(C)o2)s/c1=C(/C#N)C(=O)c1ccccc1	1%	?	-9.8%	-18%	-16%	6%	16%	?
C=CCNC(=O)C1CC(=O)N(c2ccc(OCC(=O)Nc3ccccc3)cc2)C1 (stereo not given)	44%[activator]	-10%	1.3%	-1%	-15%	1%	-7%	29%
O=C(Cn1cnc2ccccc21)Nc1ccccc1-c1ccccc1	?	1%	/	/	9%	7%	-1%	6%
CCc1ccc(-n2c(SCc3nc(-c4cc(OC)ccc4OC)no3)nnc2-c2ccccc2)cc1	-13%	?	-7.6%	-18%	/	/	/	?
c1cncc(-c2csc(-c3cccnc3)n2)c1	11%	/	/	/	-4%	-2%	1%	/
CN(C)c1ccc(P(=O)(COc2ccc([N+](=O)[O-])cc2)c2ccc(N(C)C)cc2)cc1	-14%	?	/	/	-9%	2%	0%	?
CCOc1cccc(C2CC(=O)Nc3cc4c(cc32)OCCO4)c1 (stereo not given)	0%	?	-7.3%	-6%	/	/	/	2.2µM*
O=[N+]([O-])c1ccc(C[n+]2cccc3ccccc32)cc1	-2%	14%	/	/	-2%	/	-5%	8%[46.1 µM]
COc1ccccc1CN(CC(=O)NCc1ccc(F)cc1)C(=O)c1csnn1	-9%	4%	/	/	11%	-2%	-8%	-6%[46.1 µM]
O=C1/C(=C/c2ccc(F)cc2)SC(=S)N1N1CCOCC1	14%	18%[46.1 µM]	/	/	-2%	4%	14%	2%[46.1 µM]
CC1CC(C)CN(C(=O)Cn2c(=O)n(CCCCC(=O)NC3CCCC3)c(=O)c3ccccc32)C1 (stereo not given)	-21%	9%	2.0%	6%	3%	-3%	3%	-8%&-8%[46.1 µM]
COc1ccc(-c2cc(-c3ccccc3)nc(-c3ccc4c(c3)NC(=O)CO4)c2)cc1	?	-19%	-2.2%	-26%	12%[3.69 µM]	0%	-5%	-21%
Cc1cccc(Nc2nc(N)c([N+](=O)[O-])c(N3CCC(C)CC3)n2)c1	25µM*	?	-8.1%	3%	-19%	9%	-77%	?
O=C(Nc1cccc2ccccc12)N1CC=C(c2ccccc2)CC1	5%	0%	-1.1%	-1%	-3%	4%	3%	?
CNC(=O)c1ccsc1NC(=O)c1sc2ccccc2c1Cl	6%	2%	-3.4%	-16%	-1%	11%	-20%	?
CCn1c(CNS(=O)(=O)c2ccc(Br)cc2)n[nH]c1=S	6%	/	/	/	8%	6%	0%	/
O=C(Nc1nc(-c2ccc(F)c(F)c2)cs1)c1ccc(OCC2CCCO2)cc1 (stereo not given)	2µM*	-23%	-4.7%	?	0%	11%	8%	?
CC(=O)N1CCc2cc(S(=O)(=O)NCCC(=O)NC3CCCc4ccccc43)ccc21 (stereo not given)	-12%	-6%	7.3%	-8%	0%	8%	0%	-29%[46.1 µM]
COc1ccc(NC(=O)C23CCC(C)(C(=O)C2)C3(C)C)cc1 (stereo not given)	-5%	0%	12%	4%	18%	8%	2%	14%
COc1ccccc1NC(=O)C1CCN(c2ncnc3c2nc2n3CCCCC2)CC1	?	?	-2.1%	-2%	10%	1%	0%	-17%[46.1 µM]
COc1ccc(C(=O)OCC(=O)NC2CC2)cc1S(=O)(=O)N1CCOCC1	-3%	19%	/	/	2%	/	-1%	12%[46.1 µM]
O=C(CN1C(=O)CSc2ccc(S(=O)(=O)N3CCCC3)cc21)NCc1ccccc1Cl	5%	-9%[46.1 µM]	-2.5%	-12%	/	/	/	/
Cc1ccc(-c2csc3ncnc(Nc4ccc(C(=O)O)cc4)c23)cc1	?	11%[46.1 µM]	1.0%	1%	3%	3%	0%	1%&1%[46.1 µM]
Cc1ccc(OCc2ccc(C(=O)O)o2)c([N+](=O)[O-])c1	-8%	0%	-3.0%	0%	-8%	7%	1%	-22%
Further compounds.
SMILES	StopGo reporter	LASV entry inh	Cruzain Triton	Cruzain inh noDet	RE007 growth inh	NS1 inh	SARS PLP yeast	Marburg entry inh
CCCC(=O)OCCNc1cc(Sc2nc3ccccc3[nH]2)c2nonc2c1[N+](=O)[O-]	?	?	-21%	0%	-5%	-43%	-8%	?
CCOC(=O)Cc1cc(=O)c2cc(C)ccc2[nH]1	11%	/	/	/	6%	3%	2%	/
Cc1ccc(/C=C/C(=O)N2CCCC(C)C2)cc1 (stereo not given)	-2%	?	0.7%	2%	/	-4%	-15%	?
O=C(O)C1C(c2ccccc2)C(C(=O)OCc2ccco2)C1c1ccccc1 (stereo not given)	26%	0%	3.4%	-9%	19%	0%	0%	-29%
Cc1ccccc1NC(=O)CSCc1cc(=O)n2ccsc2n1	-9%	/	/	/	7%	4%	-7%	/
Cc1ccc(C(=O)Nc2cccc(C(F)(F)F)c2)cc1Nc1ccccn1	-26%	/	/	/	-9%	-4%	-3%	/
Cc1ccc(-c2csc3nnc(SCC(=O)N4CCN(Cc5ccccc5)CC4)n23)cc1	-20%	-5%	-6.3%	20µM*	-8%	-11%	2%	-1%
CCOC(=O)c1noc2ncnc(Nc3ccc(F)cc3F)c12	-6%	-14%[46.1 µM]	7.5%	-7%	/	/	/	/
CC(C)NC(=O)NC(=O)CSc1ccccc1F	-4%	2%	0.5%	-6%	17%	-5%	-10%	11%
C=CCS(=O)(=O)c1cccc2cccnc12	-22%	3%	/	/	-3%	3%	0%	?
CC1(C(=O)NC2CCCC2)CCC(=O)N1Cc1ccccc1 (stereo not given)	20%	1%	4.2%	5%	-15%	0%	-3%	28%
O=C(O)CCn1cnc2ccccc2c1=O	-17%	7%	3.8%	-2%	8%	-10%	10%	-7%

Profiles, quoted from the list.
CC(C)NC(=O)NC(=O)CSc1ccccc1F in the list: StopGo reporter = -4%; LASV entry inh = 2%; Cruzain Triton = 0.5%; Cruzain inh noDet = -6%; RE007 growth inh = 17%; NS1 inh = -5%; SARS PLP yeast = -10%; Marburg entry inh = 11%
Cc1ccc(-c2csc3nnc(SCC(=O)N4CCN(Cc5ccccc5)CC4)n23)cc1 in the list: StopGo reporter = -20%; LASV entry inh = -5%; Cruzain Triton = -6.3%; Cruzain inh noDet = 20µM*; RE007 growth inh = -8%; NS1 inh = -11%; SARS PLP yeast = 2%; Marburg entry inh = -1%
